NPYLR7 agonist – activates Aedes aegypti NPYLR7 receptor | actives 0.15% (n = 270,000) | HEK293T NPYLR7/Galpha15, GCaMP6s calcium fluorescence | AID 1259423 | activation, % at 10 µM; in the data active means activation above about 40%;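 further: 0% = vehicle and 100% = reference agonist at the receptor; some compounds past the cut are filed as inactive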
NPYLR7 agonist max-min – also measured in NPYLR7 agonist; calls as there; activation, %; measured here: Max-Min RFU normalised activation; some inactives read as strong as hits;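 span of the calcium signal over five minutes; 0% = vehicle and 100% = native peptide agonist; compound fluorescence can raise it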
* marks the source's active call; other numbers are inactive results; & = joins results of further samples.

SMILES	NPYLR7 agonist	NPYLR7 agonist max-min
CC(C)c1ccc(CNC(C)c2ccc3c(c2)OCCO3)cc1 (stereo unspecified)	2	4
CCOC(=O)Cc1csc2nc(C(F)(F)F)c(C#N)c(=O)n12	6	4
Cc1ccccc1-c1nn(-c2ccc(F)cc2F)cc1CN(C)Cc1n[nH]c(=O)[nH]1	13	-3
O=C(NC1CCc2cc(F)ccc21)NC(c1nccs1)C1CC1 (stereo unspecified)	-23	-22
OC1CCCN(c2ccnc(N3CCN(CCc4ccccc4)CC3)n2)C1 (stereo unspecified)	4	1
Cc1ccc(OCC(=O)Oc2coc(CSc3nc(C)cs3)cc2=O)cc1	-3	-7
COc1cc(OC)cc(C(=O)NC2CCN(c3ccccc3C(=O)N3CCCC3)CC2)c1	-2	1
COc1ccc(-n2nnc(C(=O)Nc3nccs3)c2C)cc1	-3	-8
CCCNc1cc(C)nc(CCC)n1	14	4
COCCOc1ccccc1N1CCN(C(=O)c2c(C)noc2C)CC1	11	6
Cc1noc(C2CCN(CC3CCCCC3)CC2)n1	17	15
N#Cc1ccc(C(=O)Nc2cc(Cl)ccc2Cl)cc1	5	2
COCCCN(C(=O)CC(C)CC(C)(C)C)C(C)c1nc2ccccc2c(=O)n1-c1ccc(Cl)cc1 (stereo unspecified)	-5	-2
COc1ccc(CN(C)CN2C(=O)CC3(CCCC3)C2=O)cc1F	5	5
NC(=O)NN1C(=O)C(=Cc2ccco2)SC1=S	4	1
c1ccc(-c2ncn(CC3CCCO3)c2-c2ccc(-n3cncn3)cc2)cc1 (stereo unspecified)	0	-3
O=C(Cn1ccc2ccccc21)Nc1ccc(N2CCCN(C(=O)C3CC3)CC2)cc1	1	-3
Cc1nn(-c2ccccc2)c(Oc2ccccc2Cl)c1CN(CC(O)Cc1ccccc1)CC1CC1 (stereo unspecified)	-12	-9
O=C(CN(C(=O)COCc1ccccc1)C1CC1)N(CCc1c[nH]c2ccccc12)Cc1ccc(C(F)(F)F)cc1	20	25
CCOc1ccc(OCC(=O)Nc2cc(-c3cccs3)nn2-c2nc(C)c(C)c(=O)[nH]2)cc1	0	-2
CC(C)C(C)N(Cc1cc(NC(=O)c2ccco2)ccc1N(C)C)C(=O)Nc1cccc(F)c1 (stereo unspecified)	6	4
CCCN(Cc1ccc(C)cc1)Cn1nc(-c2ccc(F)cc2)oc1=O	-2	-4
CC12CCC(=O)N1C(C(=O)Nc1cccc3[nH]ccc13)CS2 (stereo unspecified)	3	2
C=CCCOC(=O)N1CCC(=O)N(CCC#N)C[C@H]2COc3ccccc3[C@H]21	3	12
COc1ccc(NC(=O)C2(C)CCOCC2)cc1Br	17	12
CCOC(=O)c1sc(-c2cccc([N+](=O)[O-])c2)cc1NC(=O)c1ccc(Cl)nc1	19	12
CCOC(=O)c1ccc(NC(=O)CSc2nc(=O)n(CCN(C)C)c3c2CCC3)cc1	-2	-7
O=C(NCCCN1CCCC1=O)C(C1CCCC1)N1CCN(C(=O)c2cccc([N+](=O)[O-])c2)CC1 (stereo unspecified)	3	8
CCOC(=O)c1nn(-c2ccccc2C)c(=O)cc1OCC(=O)Nc1ccc(OCC)cc1	18	11
CCONC(=O)c1cc(Br)c2c(c1)OCO2	8	10
COc1nc(C)cc(C)c1CNC(=O)CC1NC(=O)c2ccccc21 (stereo unspecified)	1	-7
CCCCC(=O)N1CCN(C(c2ccccc2)c2ccc(C)cc2)CC1 (stereo unspecified)	7	7
CN(CC(=O)N1CC(=O)N(c2ccc(Cl)cc2)C1)C(=O)c1ccc(C(F)(F)F)cc1	9	19
O=C(CSc1nnc(CNC(=O)c2ccc(S(=O)(=O)N3CCCCC3)cc2)n1-c1cccc(C(F)(F)F)c1)Nc1nccs1	9	7
Cc1ccc(C(=O)NCCN2C(=O)SC(=Cc3ccccc3)C2=O)o1	1	-2
O[C@@H]1CN(c2ncccc2Cl)CC[C@H]1N1CCN(c2ccccn2)CC1	0	-4
COc1ccc(CC(=O)N2CCC(c3nc(-c4ccc(C(F)(F)F)cc4)no3)CC2)cc1	-7	-11
CC1(C)CC(=O)C2=C(C1)OC(=N)C(C#N)C2c1ccc2c(c1)OCO2 (stereo unspecified)	5	-1
O=C(CN1CCSC1=O)NCC12CC3CC(CC(C3)C1)C2	-4	-5
Fc1ccc(CSc2nnc3ccc(-c4ccccc4)nn23)cc1	-13	-4
CC(C)NC(=O)c1ccc2c(=O)n(Cc3ccccc3)c3nn(CC(=O)NC(C)(C)C)c(=O)n3c2c1	-2	-7
CCCCN(C(C)=O)c1c(CC)nc2ccc(C(=O)N3CCN(C(C)=O)CC3)cn12	-2	-8
N#CC1(C(=O)NCCc2nc(-c3cccc(Cl)c3)no2)CCCC1	5	3
Cc1ccc(C2c3ccsc3CCN2C(=O)c2ccc(F)cc2)cc1 (stereo unspecified)	-5	5
CC(C)C(CNC(=O)NCc1ccccc1OCc1ccccc1)N(C)C (stereo unspecified)	-7	-5
O=C(NC(c1ccccc1)C1CC1)C1CCN(S(=O)(=O)c2c(Cl)cccc2Cl)CC1 (stereo unspecified)	0	6
Cc1cnc(C(=O)N2CCC(n3nc(C(C)C)cc3C(C)C)CC2)cn1	3	9
CC(C)NC(=O)c1cc(N2CCOCC2)nc2ccccc12	4	0
COc1ccc(C2=NN(C(=O)CSc3nc(=O)n4ccccc4n3)C(c3ccc(F)cc3)C2)cc1 (stereo unspecified)	4	1
CN1CCN(C(=O)C2COC3(CCN(C(=O)c4ccc(Cl)cc4)CC3)N2C(=O)c2cccc(F)c2)CC1 (stereo unspecified)	2	11
Cc1cc(C)c(C(=O)N2Cc3cnc(-c4ccccc4)nc3C2)cn1	8	8
Cc1ccc(-c2ccc(=O)n(CC(N)=O)n2)c(C)c1	12	4
COc1cccc(Cc2nsc(N3CCCC(C(=O)NCCC(c4ccccc4)c4ccccc4)C3)n2)c1 (stereo unspecified)	-10	-14
Cc1ccccc1C(=O)N[C@@H]1CCCCC1NC(=O)C1CCCN(C(=O)c2ccccc2Cl)C1 (stereo partly specified)	22	20
COc1ccc(OC)c(C2NC(=O)N(C)C3=C2C(=O)N(c2ccc(C)cc2)C3)c1 (stereo unspecified)	-3	5
c1cn(-c2cc3c(cc2-n2cnnc2)OCCO3)cn1	0	-3
COc1ccc(N2CCN(c3nc(Nc4ccc(F)cc4)c4cn[nH]c4n3)CC2)cc1	1	-2
N#Cc1cccc(OC2CC3CCC(C2)N3C(=O)c2ccc(CSc3nccs3)cc2)c1 (stereo unspecified)	0	3
Cc1ccc(S(=O)(=O)N2CCN(C(=O)c3cc4ccsc4n3Cc3ccccc3C)CC2C)cc1 (stereo unspecified)	0	7
COc1ccccc1-c1ccc2c(c1)C(C)(Cc1ccc(F)c(Cl)c1)C(=O)N2 (stereo unspecified)	1	3

Remaining list, next part:
SMILES	NPYLR7 agonist	NPYLR7 agonist max-min
CN1C(=O)NC(c2ccccc2F)C2=C1CN(Cc1cccc(C(F)(F)F)c1)C2=O (stereo unspecified)	29	24
Cc1ccc(CN2CCN(C3CCN(Cc4ccccc4)CC3)CC2CCO)o1 (stereo unspecified)	5	0
CC(CSC(F)(F)F)C(=O)O (stereo unspecified)	0	-5
Fc1ccc(-n2cnnc2-c2ccccc2)c(F)c1	1	0
O=C(OCc1csc(C2CCCC2)n1)C1CCCCN1c1ncccn1 (stereo unspecified)	-1	12
CCc1nc2ccc(C(=O)NCCOc3ccc(OC)cc3)cn2c1N(CC)Cc1ccc(OC)c(OC)c1	2	24
O=c1/c(=C/c2ccc(Br)cc2)sc2nc(-c3ccncc3)nn12	-7	-11
Cc1ccc(-n2nnc(C(=O)N(C)C3CCS(=O)(=O)C3)c2C)cc1C (stereo unspecified)	10	10
Cc1cc(=O)[nH]c(-c2cc(Cl)cc(Cl)c2)n1	20	13
C#CCOCC(O)CN(CC)CC1CC(c2ccc(OC)cc2)=NO1 (stereo unspecified)	-3	4
O=C1CC(C(=O)N2CCc3ccccc3C2c2ccc(F)cc2)CN1Cc1ccccc1 (stereo unspecified)	-5	0
Cn1ncc2c1ncn1c(-c3ccccc3Cl)nnc21	20	9
O=C(c1cccc2ccnn12)N1CCCC1c1nc(-c2ccccn2)no1 (stereo unspecified)	0	-3
CCS(=O)(=O)c1ccc2oc(-c3ccc(Cl)c(NC(=O)C4CCC4)c3)nc2c1	45	40
O=C(NCC1CCCO1)C1COC2(CCN(C(=O)c3ccc(Cl)cc3)CC2)N1C(=O)c1ccccc1 (stereo unspecified)	2	12
CS(=O)(=O)c1cccc(C(=O)NC2=NCCS2)c1	1	0
CCOC(=O)c1ccc(OC2CC3CCC(C2)N3C(=O)c2ccc(CN3CCC(Cc4ccccc4)CC3)cc2)cc1 (stereo unspecified)	11	7
Cc1cc(CC(C)NC(=O)CN2CCCN(C)CC2)n[nH]1 (stereo unspecified)	3	2
CNc1nc2cnc(Nc3cc(OC)c(OC)c(OC)c3)cc2n1-c1ccccc1	7	-4
CCOC(=O)c1nc2ccccc2nc1N1CCN(C(=O)c2ccco2)CC1	14	23
CCc1ccc2nc(N(Cc3cccnc3)C(=O)Cc3ccccc3)sc2c1	-26	-23
CCCc1[nH]n(-c2cccc(Cl)c2)c(=O)c1C1=C([n+]2cccc(C)c2)C(=O)N(CC2CCCO2)C1=O (stereo unspecified)	9	13
CC1(C)CC2CC(C)(CN2C(=O)c2csc(CSc3nnc(Cc4ccccc4)n3-c3cccc(C(F)(F)F)c3)n2)C1 (stereo unspecified)	-2	7
CN(CCc1ccccc1)C1CCCN(Cc2cc(=O)n3[nH]cnc3n2)C1 (stereo unspecified)	5	3
c1ccc(Oc2ccccc2-c2cc(NCCc3ccccn3)n3nccc3n2)cc1	-8	-11
COc1ccc(CCC(=O)NNC(=O)c2cc(Cl)ccc2Cl)cc1OC	3	2
CC(C)C(C)NC(=O)COC(=O)c1cc(-c2ccco2)nc2ccccc12 (stereo unspecified)	-1	-1
Cc1sc2ncnc(SCC(=O)c3cc(Cl)sc3Cl)c2c1C	-13	-18
CC(C)Cc1nc(N2CCN(S(=O)(=O)c3ccc(F)cc3)CC2)c2c(-c3cccc(C(F)(F)F)c3)noc2n1	18	8
CCCNC(=O)C(NC(=O)CC(C)C)C1CCN(C(=O)CCc2ccccc2)CC1 (stereo unspecified)	12	14
COc1ccc(NC(=O)CC(=O)N2Cc3ccccc3C2)c(OC)c1	7	7
Cc1nc(CCC(=O)N2Cc3cnn(Cc4ccc(F)cc4)c3C2)n[nH]1	-5	-8
Cc1ccc(C(=O)N(CCCN(C)C)c2nc3ccc(Br)cc3s2)cc1	-2	-5
CNc1nc(C)c(C(=O)c2ccc(C)cc2)s1	8	10
Cc1cccc(Cn2c(=O)c(C(=O)NCCN(C)C)nn(-c3ccc(C)c(C)c3)c2=O)c1	13	15
O=C(Nc1ccc(S(=O)(=O)Nc2cccc(F)c2)cc1)C1CCOC1 (stereo unspecified)	8	4
CCc1ncc(C(=O)NS(=O)(=O)c2ccccc2C(=O)OC)s1	10	8
CCC(C)c1csc(N(C)C(=O)CCn2cncn2)n1 (stereo unspecified)	4	1
CCC(C)N(CC(=O)N(Cc1ccc(F)cc1)Cc1cccs1)C(=O)c1ccc(F)cc1 (stereo unspecified)	7	10
Cc1cc2c(N=NC(=O)c3ccccc3O)c(O)[nH]c2cc1Br	-5	1
O=S(=O)(c1ccc(Cl)s1)N1CCN(c2ccnc3cc(Cl)ccc23)CC1	13	10
CCCCN(C)C(=O)C1CCNCC1	-3	-6
O=C(NCc1ccc(-c2ncc(-c3ccc(F)cc3)[nH]2)cc1)c1cc(F)cc(C(F)(F)F)c1	2	2
CCn1ncnc1C(C)NC(=O)Cc1csc(C)n1 (stereo unspecified)	5	-1
COc1ccc(C(=O)N2CCCC2)c(OC2CCN(C3Cc4ccccc4C3)CC2)c1	3	-1
CCN1CCN(c2c(CN(CCCOC)C(=O)C(C)(C)CCl)c(C)nn2-c2ccccc2)CC1	14	26
CCOC(=O)N1CCN(c2c(F)cc3[nH]c(=S)[nH]c3c2Br)CC1	-12	-21
Cc1c(C(C)NC(=O)CN2CCC(c3ccccc3)CC2)cnn1-c1ccccn1 (stereo unspecified)	5&-6	3&-6
CCSc1nc(CC(=O)N(C)C(C)c2nccs2)cs1 (stereo unspecified)	4	13

Compounds listed so far that have an NH in an aromatic ring:
SMILES	NPYLR7 agonist	NPYLR7 agonist max-min
Cc1ccccc1-c1nn(-c2ccc(F)cc2F)cc1CN(C)Cc1n[nH]c(=O)[nH]1	13	-3
O=C(CN(C(=O)COCc1ccccc1)C1CC1)N(CCc1c[nH]c2ccccc12)Cc1ccc(C(F)(F)F)cc1	20	25
CCOc1ccc(OCC(=O)Nc2cc(-c3cccs3)nn2-c2nc(C)c(C)c(=O)[nH]2)cc1	0	-2
CC12CCC(=O)N1C(C(=O)Nc1cccc3[nH]ccc13)CS2 (stereo unspecified)	3	2
COc1ccc(N2CCN(c3nc(Nc4ccc(F)cc4)c4cn[nH]c4n3)CC2)cc1	1	-2
Cc1cc(=O)[nH]c(-c2cc(Cl)cc(Cl)c2)n1	20	13
Cc1cc(CC(C)NC(=O)CN2CCCN(C)CC2)n[nH]1 (stereo unspecified)	3	2
CCCc1[nH]n(-c2cccc(Cl)c2)c(=O)c1C1=C([n+]2cccc(C)c2)C(=O)N(CC2CCCO2)C1=O (stereo unspecified)	9	13
CN(CCc1ccccc1)C1CCCN(Cc2cc(=O)n3[nH]cnc3n2)C1 (stereo unspecified)	5	3
Cc1nc(CCC(=O)N2Cc3cnn(Cc4ccc(F)cc4)c3C2)n[nH]1	-5	-8
Cc1cc2c(N=NC(=O)c3ccccc3O)c(O)[nH]c2cc1Br	-5	1
O=C(NCc1ccc(-c2ncc(-c3ccc(F)cc3)[nH]2)cc1)c1cc(F)cc(C(F)(F)F)c1	2	2
CCOC(=O)N1CCN(c2c(F)cc3[nH]c(=S)[nH]c3c2Br)CC1	-12	-21

Source: PubChem BioAssay (Fisher Drug Discovery Resource Center)

These rows are one share of the data; the hit share may differ from the screen's.
